Bioassay records (PubChem BioAssay)
miR-21 reporter – miR-21 reporter, rising signal | Potency, µM (series often up to 38.3 µM), without a hit: at the top dose reporter change, positive = more light | HeLa miR-21 FLuc reporter, luciferase, 48 h | 340,000 tested, under 10 active; active = well fitted rising curve with a large enough effect; inconclusive = small, poorly fitted or top-dose-only effect; inactive = no such curve, though single readings can be large or run the other way;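 further: % of control where 0% means no effect; miR-21 action dims this reporter so a rising signal means less miR-21 action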
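Using DMEM plus 10% FBS, HeLa miR-21-FLuc cells are incubated with test compounds (final up to about 40uM) for 48 hours; firefly luciferase signal is then imaged following reagent-mediated lysis.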
Rango dissoc inh – inhibitors of RanGTP-induced Rango-importin beta complex dissociation; O95149+P62826; Potency, µM (series often up to 46.1 µM), for the others: at the top dose activity change, negative = inhibition; hit rate 0.071% among 340,000; Biochemical FRET Rango-importin beta, RanGTP-induced dissociation; AID 540253; active means falling FRET ratio curve, often poorly fitted, with flat reads before Ran was added; inconclusive means other falling curves, or compound fluorescence or quenching; inactive means flat or rising ratio curve;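 further: potency means the concentration at half of the fitted maximal effect; % of control where 0% means no effect; nearly all actives have a fitted effect of over 45% in size; -100% = wells without RanGTP and RCC1; the record marks most hits as doubtful in a second field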
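Compounds sat 5 min at room temperature with 0.1 uM Rango biosensor plus 0.25 uM importin beta, then FRET pre-read. RanGTP-RCC1 (0.6 uM Ran, 2mM GTP, 0.2 uM RCC1) added for 45 min, and the CFP/YFP post-read measured blocked complex dissociation.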
Rango-impB inh – prevents formation of the Rango-importin beta complex; Q14974; Rango CFP/YFP FRET sensor + importin beta, 45 min; Potency, µM (highest dose often 92.2 µM), for inactives: top-dose inhibition of complex formation; hit rate 0.031% among 340,000; AID 540263; active = rising FRET ratio curve, often small or poorly fitted; inconclusive = mostly compound fluorescence or quenching in the first reads; inactive = flat curves in all reads;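 further: potency means the concentration at half of the fitted maximal effect; 0% = DMSO wells and 100% = buffer wells lacking importin beta; nearly all actives have a fitted effect of over 15% in size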
Target sequence (Q14974 whole entry, looked up): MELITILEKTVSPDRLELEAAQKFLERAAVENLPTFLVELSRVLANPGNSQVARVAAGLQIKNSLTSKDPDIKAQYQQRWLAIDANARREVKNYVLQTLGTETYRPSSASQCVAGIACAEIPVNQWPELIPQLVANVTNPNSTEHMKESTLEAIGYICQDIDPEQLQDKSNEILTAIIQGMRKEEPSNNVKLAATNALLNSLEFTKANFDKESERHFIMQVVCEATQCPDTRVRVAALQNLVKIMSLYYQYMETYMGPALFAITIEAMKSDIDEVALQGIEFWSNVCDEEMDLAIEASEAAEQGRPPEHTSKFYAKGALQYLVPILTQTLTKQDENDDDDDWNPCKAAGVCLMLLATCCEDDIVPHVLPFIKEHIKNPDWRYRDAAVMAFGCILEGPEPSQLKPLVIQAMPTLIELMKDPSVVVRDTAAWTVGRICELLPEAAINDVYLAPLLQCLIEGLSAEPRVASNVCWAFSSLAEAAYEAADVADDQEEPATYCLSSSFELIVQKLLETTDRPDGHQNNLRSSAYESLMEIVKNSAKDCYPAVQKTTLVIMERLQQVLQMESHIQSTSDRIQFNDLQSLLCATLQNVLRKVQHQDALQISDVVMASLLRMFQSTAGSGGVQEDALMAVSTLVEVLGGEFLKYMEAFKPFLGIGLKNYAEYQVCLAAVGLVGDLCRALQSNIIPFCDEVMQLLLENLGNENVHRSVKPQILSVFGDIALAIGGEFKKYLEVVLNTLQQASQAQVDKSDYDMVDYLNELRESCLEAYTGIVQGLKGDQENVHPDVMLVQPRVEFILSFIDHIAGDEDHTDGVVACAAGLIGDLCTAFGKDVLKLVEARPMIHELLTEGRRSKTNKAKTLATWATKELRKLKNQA
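FRET biosensor Rango (snurportin 1 IBB between N-terminal EYFP and C-terminal Cerulean), 50 nM in PBS/1 mM DTT/0.02% Tween-20/0.1% BSA, preincubated 5 min RT with compound; 0.125 microM importin beta added, 45 min RT, CFP/YFP FRET ratio read.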
GLA inh pH 4.5 – alpha-galactosidase A (human) inhibition, pH 4.5; P06280; purified enzyme, 4-MU-alpha-Gal fluorescence, pH 4.5; activity change, negative = inhibition, % at 105 µM; 230,000 tested, under 10 active; inconclusive = small, poorly fitted or top-dose-only inhibition, or a rising curve; inactive = flat fitted curve, though single readings scatter; no compound was filed as active;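 further: 0% = full activity with enzyme and -100% = basal without enzyme; dose as in the result columns while the protocol names 77 µM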
* hit, by the source's call; ? = inconclusive; nt = no result given; & = joins results of further samples. A portion of the library. The share of hits here may be higher or lower than overall.

GLA inh pH 4.5	Rango dissoc inh	miR-21 reporter	Rango-impB inh	compound
4	2%	-22%	-2.2%	Cc1cc(C)n(/N=C/c2ccc(C(C)C)cc2)c(=O)c1C#N
nt	4%	nt	-0.4%	CCN1CCN(C(=O)N[C@@H](C(=O)N[C@@H]2C(=O)N3C(C(=O)O)=C(CSc4nnnn4C)CS[C@H]23)c2ccc(O)cc2)C(=O)C1=O
3	20%	-8%	-2.8%	Cc1ccc(NC(=O)CNCC2CCCCC2)cc1S(=O)(=O)N(C)C
-1	13%	-1%	-5.2%	CC1Cc2ccccc2N1S(=O)(=O)c1ccc2c(c1)n(C)c(=O)c(=O)n2C (stereo not given)
-14	10%	-1%	-3.2%	CN(C)S(=O)(=O)Nc1ccc(Oc2ccccc2)cc1
-2	18%	-1%	4.3%	CCOC(=O)C1CC(=O)c2cc(OC)c(OC)cc2C1 (stereo not given)
nt	2%	0%	5.9%	CSc1nsc(SCC(=O)Nc2cc(C(=O)O)ccc2C)n1
-4	-22%	-8%	?	N#CCc1c(C#N)c(N)nc(N2CCCC(O)C2)c1C#N (stereo not given)
-2	-7%	0%	-0.6%	O=C(NCc1ccncc1)c1ccc(Br)o1
-1	27%	0%	-2.7%	CCOc1ccc(N2CC(C(=O)Nc3c(C)n(C)n(-c4ccccc4)c3=O)CC2=O)cc1 (stereo not given)
-7	-9%	-2%	-0.6%	COCCCn1c(=O)cc(C)[nH]c1=S
-7	-21%	3%	-2.0%	COc1ccc(Cl)cc1NC(=O)CN(C)CC(=O)NC(C)c1ccccc1 (stereo not given)
-3	2%	-3%	-4.3%	COC(=O)C1=C(C)N=C2SC(C)C(=O)N2C1c1ccc(C(=O)OC)cc1 (stereo not given)
nt	-1%	nt	-2.5%	COc1cc(C(=O)NCC(c2ccco2)N2CCc3ccccc3C2)cc(OC)c1OC (stereo not given)
2	24%	-55%&-46%	0.1%	Cc1ccc(CSc2ccc(-c3cccs3)nn2)cc1
3	-4%	-7%	0.1%	O=C1CCN(S(=O)(=O)c2cccs2)c2ccc(C(F)(F)F)cc2N1
nt	4%	0%	-2.1%	CCOc1ccc(N=Nc2ccc(O)c3ncccc23)cc1
2	0%	1%	0.1%	NC(Cc1ccccc1)C(O)(c1ccccc1)c1ccccc1 (stereo not given)
-7	?	-4%	?	Cc1cccc(-n2c(N)c(-c3nc4ccccc4n3C)c3nc4ccccc4nc32)c1
1	1%	-1%	2.0%	CCOc1ccc(C2Nc3ccccc3C(CC)(CC)O2)cc1 (stereo not given)

Sorted by SMILES length (ascending): 4 of the compounds above.
GLA inh pH 4.5	Rango dissoc inh	miR-21 reporter	Rango-impB inh	compound
-2	-7%	0%	-0.6%	O=C(NCc1ccncc1)c1ccc(Br)o1
4	2%	-22%	-2.2%	Cc1cc(C)n(/N=C/c2ccc(C(C)C)cc2)c(=O)c1C#N
3	-4%	-7%	0.1%	O=C1CCN(S(=O)(=O)c2cccs2)c2ccc(C(F)(F)F)cc2N1
-3	2%	-3%	-4.3%	COC(=O)C1=C(C)N=C2SC(C)C(=O)N2C1c1ccc(C(=O)OC)cc1 (stereo not given)

Later entries:
GLA inh pH 4.5	Rango dissoc inh	miR-21 reporter	Rango-impB inh	compound
nt	13%	-2%	0.8%	CN(CC(=O)Nc1ccccc1Br)C(=O)c1cccc([N+](=O)[O-])c1
-11	?	4%	6.0%	Cc1[nH]nc(NCCO)c1[N+](=O)[O-]
-4	3%	-3%	-2.2%	CCCc1c(O)nc(SCCN(CC)CC)n(C(=O)c2ccccc2)c1=O
-1	14%	-8%	0.5%	COc1cc(C(=S)N2CCOCC2)ccc1OC(=O)c1cc([N+](=O)[O-])c(C)c([N+](=O)[O-])c1
7	-17%	0%	0.2%	COC(=O)[C@@H](NC(=O)Nc1cc(Cl)ccc1C)C(C)C
-4	-3%	10%	-1.3%	COc1cc2c(cc1OC)C(C)N(C(=O)C1COc3ccccc3O1)CC2 (stereo not given)
7	-1%	0%	-1.3%	CC(C)(C)n1nc2c(c1NC(=O)c1cccc(C(F)(F)F)c1)CS(=O)C2 (stereo not given)
5	1%	-2%	3.6%	Cc1cc(C)cc(OCC(=O)Nc2nc3ccc([N+](=O)[O-])cc3s2)c1
-5	1%	1%	?	CN1CCCC(OC(=O)/C(C#N)=C/c2ccccc2)C1 (stereo not given)
6	-13%	-20%	-1.0%	CSc1nc(C)cc(Oc2ccc(OCCOc3ccccc3)nn2)n1
5	-17%	0%	-3.0%	Cc1cc(-c2ccc(Cl)cc2)oc(=O)c1NC(=O)c1ccccc1
nt	-1%	nt	0.2%	CCOc1ccc(OCCC(=O)OCC(=O)N2CCN(S(=O)(=O)c3ccc(C)cc3C)CC2)cc1
nt	1%	nt	1.8%	CCOC(=O)C1=CNS(=O)(=O)NC1c1ccc(C(F)(F)F)cc1 (stereo not given)
nt	-15%	nt	-0.7%	CCOc1ccc(OCCC(=O)OCC(=O)NCCc2ccc(S(N)(=O)=O)cc2)cc1
nt	3%	-1%	-1.1%	COc1cc(OC)c(C(=O)NCc2ccco2)cc1OC
4	-8%	8%	7.5%	Cc1ccc(S(=O)(=O)N(CC(=O)N2CCN(c3ccccc3F)CC2)C2CCCCC2)cc1
nt	24%	nt	0.5%	CCC(=Cc1ccccc1OC)c1ccncc1
3	-2%	19%	0.1%	O=S(=O)(NCC1CCCO1)c1ccc(-c2ccc(S(=O)(=O)NCC3CCCO3)cc2)cc1 (stereo not given)
nt	?	0%	?	O=C(NCCCN1CCCC1=O)c1cc2nc(-c3ccco3)cc(C(F)(F)F)n2n1
nt	1%	nt	4.8%	C[C@H]1CC[C@@]2(O[C@H](CCO)C[C@H](O)[C@H]2O)O1
nt	0%	0%	9.0%	O=C(O)Cn1c(O)c(C2=c3ccccc3=NC2=O)sc1=O
nt	-5%	nt	0.3%	Nc1cc(S(=O)(=O)N2CCOCC2)ccc1N1CCCCC1
11	8%	-38%	3.4%	N/C(=N/OC(=O)c1ccccc1F)c1nonc1N
10	8%	-1%	3.2%	O=C(c1ccccc1)N1CCCc2ccccc21
8	-19%	-6%	?	NC(=O)CC(NC(=O)Cc1ccc(Br)cc1)c1ccc(NCc2ccc(F)cc2)c([N+](=O)[O-])c1 (stereo not given)
2	-13%	-18%	-0.7%	Cc1ccc(S(=O)(=O)Nc2ccc3c(c2)OCCO3)cc1C
-12	-2%	-14%	-4.0%	CCOC(=O)c1c(-c2ccccc2)oc2ccc(O)c(CN3CCCC3)c12
0	5%	1%	0.2%	O=C(CCn1c(=O)[nH]c2ccsc2c1=O)NCc1ccc(F)cc1
-3	9%	1%	-4.6%	CC(C)(Cc1ccc(O)cc1)NC(=O)CC(=O)N=Nc1c(O)[nH]c2ccc(Br)cc12
-4	-8%	-3%	-0.1%	CCS(=O)(=O)N1Cc2ccccc2CC1C(=O)NC(C)C12CC3CC(CC(C3)C1)C2 (stereo not given)
nt	34%	0%	-0.8%	CCCn1c(=O)c(C(=O)NCc2ccccc2OC)c(O)c2ccccc21
7	11%	0%	-0.8%	CCC(C)[C@H](NC(=O)NCc1cccc(OC)c1)C(=O)OC (stereo not given in full)
-17	-3%	-45%	-0.1%	O=C(/C=C/c1ccccc1Cl)Nc1ccncc1
-3&0	-5%	3%	?	CCCCC1=CC2=C(c3ccco3)C(=O)C(C)(OC(=O)c3ccc(OC)cc3)C(=O)C2=CN1CCCCO (stereo not given)
1	-5%	-6%	-0.5%	Cc1ccc(C(=O)CSC2=C(C#N)C(c3ccco3)CC(=O)N2)c(C)c1 (stereo not given)
nt	21%	2%	-4.2%	CC(C)(C)c1ccc(OCC(=O)NNC(=S)NC(=O)c2ccco2)c(Br)c1
-3	1%	1%	-2.6%	Cc1ccc(-c2nnc(SCC(=O)CC(=O)Nc3ccccc3)n2-c2ccccc2)cc1
-10	-2%	-4%	-1.0%	Cc1nonc1N1CCN(Cc2cn[nH]c2-c2ccc3c(c2)OCO3)CC1
0	23%	?	-5.0%	CC(NC(=O)CN(c1cccc(C(F)(F)F)c1)S(=O)(=O)c1ccc(Cl)c([N+](=O)[O-])c1)c1ccccc1 (stereo not given)
nt	6%	-13%	-1.5%	CCOC(=O)c1c(C)nc(C)c(C(=O)OCC)c1-c1ccccc1
nt	-2%	nt	2.8%	COc1cccc(CNC(=O)COC(=O)CCc2cc(OC)c(OC)c(OC)c2)c1
3	12%	0%	-2.2%	CCOC(=O)C1(CC2CCCCO2)CCN(S(=O)(=O)c2ccsc2)CC1 (stereo not given)
nt	18%	nt	0.0%	CCCCCN(C(=O)CCC(=O)OCc1ccc(Cl)cc1Cl)c1c(N)n(CCCC)c(=O)[nH]c1=O
-11	4%	0%	0.1%	COc1ccccc1/C=c1\sc2nc(-c3ccco3)nn2c1=O
nt	27%	0%	-0.3%	COc1ccc(C)cc1NC(=O)CN(C)S(=O)(=O)c1ccc2c(c1)n(C)c(=O)c(=O)n2C
-7	-7%	2%	-4.1%	Cc1cc(S(=O)(=O)N(Cc2cccs2)Cc2ccccc2F)ccc1-n1cnnn1
2	-13%	23%	-0.7%	CCOc1ccc(C2NC(=O)NC(C)=C2[N+](=O)[O-])cc1OC (stereo not given)
4	-1%	-14%	2.1%	O=C(O)c1cc(-c2cccc(Cl)c2)nc2nc(N3CCCCC3)sc12
-25	?	-18%	?	O=C(c1ccc(N2CCOCC2)cc1)c1cccs1
nt	-29%	-5%	-3.3%	CCc1nc(N2CCN(C(C)=O)CC2)c2c3c(sc2n1)CC(C(C)(C)C)CC3 (stereo not given)

Going on with the list:
GLA inh pH 4.5	Rango dissoc inh	miR-21 reporter	Rango-impB inh	compound
6&-5	-24%	22%	?	CCCCC1=CC2=C(c3ccco3)C(=O)C(C)(OC(=O)c3ccc(OC)cc3)C(=O)C2=CN1C1CC1 (stereo not given)
nt	-4%	-1%	0.4%	Cc1ccccc1N1CCN(C2CCCN(C(=O)c3ccccn3)C2)CC1 (stereo not given)
6	22%	-6%	3.7%	Cc1ccccc1C(=O)NNC(=S)NC(=O)c1ccc(Cl)cc1Cl
nt	-10%	nt	-0.4%	CCN(CC(=O)Nc1ccccc1OC)C(=O)CC1CC2CCC1C2 (stereo not given)
5	-15%	-4%	-13%	CC(=O)Nc1ccc(S(=O)(=O)N(C)CC(=O)OCC(=O)N2CCc3ccccc32)cc1
nt	-13%	8%	0.9%	CNc1c(NS(=O)(=O)c2cc(Cl)ccc2OC)c(=O)oc2ccccc12
3	19%	19%	0.2%	CCC(C)n1ncn(-c2ccc(N3CCN(c4ccc(O)cc4)CC3)cc2)c1=O (stereo not given)
-3	-19%	-11%	1.7%	O=C(NN=C1CCCCCCC1)c1ccc2ccccc2n1
nt	30%	nt	1.7%	CS(=O)(=O)c1cccc(C(=O)OCC(=O)NCc2cccs2)c1
8	2%	-2%	-4.8%	NNc1nc(Nc2ccccc2)nc(Nc2ccccc2)n1
nt	-14%	-41%	?	Cc1ccc(Cl)c(N/C=C/C(=O)c2ccccc2)c1
nt	-6%	nt	-3.6%	Cc1cc(O)c(C(C)C)cc1NC(=O)Nc1cc(Cl)ccc1Cl
-3	nt	-10%	nt	COc1ccc(-c2nsc3c(N4CCN(S(=O)(=O)c5ccccc5)CC4)ncnc23)cc1
-7	4%	2%	-2.0%	O=C(CNC(=O)C1CCCCC1)NCCCO
nt	16%	-7%	-6.6%	O=C(Nc1cccc([N+](=O)[O-])c1)C1C2CCCCC21 (stereo not given)
-7	23%	-5%	-2.4%	CC(C)(C)C1CCc2onc(C(=O)NC3CCCC3)c2C1 (stereo not given)
nt	4%	-32%	-3.0%	CC(C)(C)c1ccc(C(=O)Nc2cccnc2)cc1

Only miR-21 reporter and Rango-impB inh (six entries from above):
mol,miR-21 reporter,Rango-impB inh
Cc1cc(O)c(C(C)C)cc1NC(=O)Nc1cc(Cl)ccc1Cl,nt,-3.6%
COc1ccc(-c2nsc3c(N4CCN(S(=O)(=O)c5ccccc5)CC4)ncnc23)cc1,-10%,nt
O=C(CNC(=O)C1CCCCC1)NCCCO,2%,-2.0%
O=C(Nc1cccc([N+](=O)[O-])c1)C1C2CCCCC21 (stereo not given),-7%,-6.6%
CC(C)(C)C1CCc2onc(C(=O)NC3CCCC3)c2C1 (stereo not given),-5%,-2.4%
CC(C)(C)c1ccc(C(=O)Nc2cccnc2)cc1,-32%,-3.0%
